TRPML1 inh: human mucolipin-1 channel inhibition; Q9GZU1; TRPML1-inducible cells, Ca2+ dye fluorescence, FDSS; hits give low values; inhibition of EC80 agonist-evoked calcium signal; activity change, negative = inhibition, % (test concentration not listed); 390,000 compounds, 0.02% hits; in the data active means activity change below about -50%; inconclusive means about -30% to -50%; inactive means above about -30%;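 note: stimulus is agonist 54-4 at its EC80 concentration; % is set by controls: 0 for no effect and ±100 for the full control effect; compound concentration not given in the record; the text of the record puts the active cut at -80%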
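Tet-induced TRPML1-DL cells loaded with Ca8 no-wash calcium dye were read kinetically on FDSS. Compound addition was followed by EC80 agonist 54-4 (4 uM final); inhibition was read over 110 s.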
ClpP mod: qHTS Assay for Activators of ClpP | ATP-dependent Clp protease proteolytic subunit (Bacillus subtilis (strain 168)), P80244 | purified B. subtilis ClpP, FRET peptide cleavage, 20 min | Potency, µM (doses to about 57.5 µM), for inactives: top-dose activity change, negative = active | 340,000 compounds, 1.9% hits | AID 651965, 2013; active = well fitted falling curve with a large enough effect; inconclusive = small, poorly fitted or top-dose-only effect; inactive = no such curve, though single readings can be large or run the other way; note: potency is the fitted concentration of half-maximal effect; the source files actives as falling curves though it sought activators and does not explain the sign; nearly all actives have a fitted effect of over 65% in size; many hits overshoot -100%
Target sequence (P80244 whole entry, looked up): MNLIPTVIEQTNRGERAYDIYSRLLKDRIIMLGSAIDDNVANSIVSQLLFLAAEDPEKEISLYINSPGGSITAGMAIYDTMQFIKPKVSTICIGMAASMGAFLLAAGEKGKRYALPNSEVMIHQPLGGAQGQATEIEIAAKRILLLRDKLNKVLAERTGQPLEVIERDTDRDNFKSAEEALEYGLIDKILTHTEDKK
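ClpP 10 microg/mL final, pH 8 Tris/KCl buffer with BSA, glycerol, Tween-20; compound pinned in; FRET-FV substrate; RT 20 min; Ex320/Em430; ΔFRET vs ADEP 5.8 microM, DMSO, no enzyme.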
gsp antagonist: gsp mutant antagonism | gsp-mutant cells, cAMP HTRF, 30 min; control for the full effect not named in the record | Potency, µM (doses to about 76.9 µM), for the others: at the top dose activity change, negative = inhibition, actives largely listed as inhibitors | 340,000 compounds, 0.4% hits; active = falling curve of any shape with a large fitted effect; inconclusive = falling curve, mostly with a smaller effect; inactive = flat or rising curve; cell line not stated here;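 note: intracellular cAMP measured with PDE inhibitor Ro 20-1724 present during compound exposure; potency is the fitted concentration of half-maximal effect; % is set by controls: 0 for no effect and ±100 for the full control effect; nearly all actives have a fitted effect of over 65% in size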
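HTRF cAMP read-out (cAMP-d2 plus anti-cAMP antibody-K in lysis buffer, 30 min RT). Before lysis, cells are exposed to compounds with […] for 30 min at 37C in DPBS containing Ca/Mg, BSA and Tween 20.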
gsp agonist: gsp mutant agonism | gsp mutant cells, cAMP HTRF, 30 min; control for the full effect not named in the record | Potency, µM (doses to about 76.9 µM), inactives show top-dose activation (cAMP increase), most hits filed as activators | 340,000 compounds, 0.13% hits | AID 624287; active = well fitted activation curve with a large enough effect; inconclusive = small, poorly fitted or top-dose-only effect, or another doubt; inactive = no such curve, though single readings can be large or run the other way; cell line not stated here;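 note: phosphodiesterase inhibitor Ro 20-1724 added with compounds to block cAMP breakdown; potency is the fitted concentration of half-maximal effect; nearly all actives have a fitted effect of over 60% in size; about a fifth of the inactives were tested at one dose only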
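Cells stably selected in G418 were plated at 2000/well, grown 16-24 hr, then given compounds in DMSO with the PDE inhibitor […] (300 uM solution added) for 30 min at 37C; cAMP was read by HTRF.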
Menin MLL FP FL: inhibitors of human menin-MLL interaction, wild-type MLL peptide; Fluorescence polarization, fluorescein-MLL peptide displacement from menin; FP activity change, % at 61.4 µM; 290,000 tested, under 10 active; AID 1766; inconclusive = falling polarisation curve, or a change in total fluorescence; inactive = total fluorescence flat and polarisation flat or rising; no compound was filed as active; the % refers to the polarisation; negative = inhibition;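 note: % of control where 0% means no effect; inhibitors lower the polarisation; unlabelled MLL peptide was the positive control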
Sfp inh: inhibitors of Bacillus subtilis Sfp phosphopantetheinyl transferase | Q9F4F7 | Biochemical Sfp PPTase activity, qHTS | Potency, µM, for inactives: max response, negative = inhibition, most hits filed as inhibitors | 310,000 compounds, 3.5% hits | AID 1490; active = well fitted inhibition curve with a large enough effect; inconclusive = small, poorly fitted or top-dose-only effect, or another doubt; inactive = no such curve, though single readings can be large or run the other way;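 note: the enzyme is Sfp with the accession as filed and its product quenches rhodamine fluorescence; potency is the fitted concentration of half-maximal effect; 0% = enzyme reaction without inhibitor and -100% = no enzyme wells; top concentration of the series not given in the record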
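With Hepes-Na pH 7.6 buffer containing 10 mM MgCl2, Sfp (15 nM) modified BHQ-2-YbbR (12.5 uM) using rhodamine-CoA (5 uM). Two reads 30 minutes apart at 525/598 nm yielded each well's rate.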
TRPV1 PAM: potentiators of human vanilloid receptor 1 (TRPV1); TRPV1-expressing cells, Fluo-8 calcium influx, capsaicin EC20 potentiation; host cell line not named in the record; control for the full effect not named in the record; potentiation, % at 8.33 µM; 320,000 compounds, 0.02% hits; AID 540277; active means potentiation above 80%; inconclusive means 30% to 80%; inactive means below 30%; note: 0% is about no effect
Target sequence (Q8NER1 whole entry, looked up): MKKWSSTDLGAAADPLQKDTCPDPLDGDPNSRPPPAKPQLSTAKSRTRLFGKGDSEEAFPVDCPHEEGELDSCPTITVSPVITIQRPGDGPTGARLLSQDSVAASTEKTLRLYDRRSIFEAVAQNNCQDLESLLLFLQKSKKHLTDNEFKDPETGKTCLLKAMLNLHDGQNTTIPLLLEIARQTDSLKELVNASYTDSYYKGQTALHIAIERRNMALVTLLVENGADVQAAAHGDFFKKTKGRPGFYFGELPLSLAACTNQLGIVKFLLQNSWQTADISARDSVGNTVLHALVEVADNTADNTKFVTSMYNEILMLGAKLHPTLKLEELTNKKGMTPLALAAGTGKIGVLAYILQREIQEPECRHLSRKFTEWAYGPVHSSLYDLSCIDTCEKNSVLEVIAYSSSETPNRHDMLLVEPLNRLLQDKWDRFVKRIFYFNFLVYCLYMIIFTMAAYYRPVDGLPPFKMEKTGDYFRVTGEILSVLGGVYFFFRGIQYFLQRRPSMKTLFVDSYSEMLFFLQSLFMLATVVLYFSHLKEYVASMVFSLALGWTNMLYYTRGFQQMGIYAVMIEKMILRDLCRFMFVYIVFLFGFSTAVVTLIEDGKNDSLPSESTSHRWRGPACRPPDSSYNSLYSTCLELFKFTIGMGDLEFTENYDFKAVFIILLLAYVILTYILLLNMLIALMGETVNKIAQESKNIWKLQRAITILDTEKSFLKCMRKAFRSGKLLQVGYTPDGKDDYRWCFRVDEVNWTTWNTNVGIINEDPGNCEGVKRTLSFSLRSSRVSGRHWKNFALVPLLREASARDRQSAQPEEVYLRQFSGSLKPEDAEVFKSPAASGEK
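Fluo-8 calcium influx in TRPV1-expressing cells, kinetic read (ex 480/em 520 nm). Compound added and read 3 min for agonist activity, followed by capsaicin at EC20 final and 2 min further read for enhancement.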
Starred values were filed as active, the others as inactive; ? = inconclusive; / = not tested or not shown; & = joins results of further samples; [ ] = remark or other dose.

Values run as follows: TRPML1 inh | ClpP mod | gsp antagonist | gsp agonist | Menin MLL FP FL | Sfp inh | TRPV1 PAM
- C#CCOCCOCCOCCNc1nc(N2CCN(C(=O)[C@H](CCC(=O)O)n3cc(C(N)CO)nn3)CC2)nc(N2CCN(C(=O)[C@H](CCCCN)n3cc(C(N)CC(C)C)nn3)CC2)n1 (some centres not stated)
 : / | / | / | / | 0.8 | -9% | -15
- CCCn1c(SCC(=O)N2CCc3ccccc32)nnc1-c1ccncc1
 : / | / | / | / | 2.6 | 15% | 15
- Cc1ccc(CNC(=O)CSc2nc3n[nH]c(C)c3c(=N)n2-c2cccc(C)c2)cc1
 : -7&8 | 71%&43% | -17% | -2% | -2.4 | -6% | 14
- CN(CC(=O)Nc1n[nH]c(=S)s1)S(=O)(=O)c1cccc2cccnc12
 : 37 | -1.1% | -11% | 1% | -0.5 | 40µM* | -3
- COc1cc(/C=N/O)cc(Br)c1OS(=O)(=O)c1ccc(C)cc1
 : -3 | 0.6% | ? | 12% | 0.6 | 10% | ?
- COC(=O)C1=C(C(=O)OC)[C@@H]2N(Cc3ccccc3)c3ccccc3[C@@]23C[C@@H](C(=O)OC)N(C(=O)c2cccs2)C3=N1
 : 9 | -2.7% | 5% | -51%[inhibitor] | -4.6[11.7 µM] | 1%&4% | ?
- CC(=O)Nc1ccc(Oc2ccc(-c3noc(C)n3)cc2)cc1
 : -14 | -0.9% | -2% | 6% | 4.1 | -3% | 12
- CCOC(=O)C1(Cc2ccccc2C)CCCN(C(=O)CN2C(=O)CSC2=O)C1 (configuration not stated)
 : 26 | 0.4% | 6% | ? | -13 | 4% | -5
- CCc1ccccc1NC(=O)c1cccc(Oc2ccc([N+](=O)[O-])cc2Cl)c1
 : 44 | / | -11% | 29% | 7.3 | 15% | 8
- CNC(=O)/C(C#N)=C/c1c(N(Cc2ccccc2)Cc2ccccc2)nc2c(C)cccn2c1=O
 : -3 | ? | -1% | 19% | 2.4 | ? | -13
- COCCNC(=O)C(c1ccc(O)cc1)N(Cc1ccco1)C(=O)CCC(=O)Nc1ccccn1 (configuration not stated)
 : -12 | / | 5% | ? | -1.6 | 10% | 14
- Cc1ccc(Oc2ncccc2N)c2c1CCC2
 : 25 | / | -6% | 8%[15.4 µM] | 1.5 | 10% | -3
- COc1ccc(C(=O)N2CCC(n3nnc4cc(F)ccc43)CC2)cc1OC
 : -5 | / | -11% | 10%[15.4 µM] | 1.4 | 5% | 5
- O=C1NC(=S)/C(=C\c2ccc(-c3ccccc3Cl)o2)S1
 : 5 | -0.4% | -33% | ? | ? | 50µM* | 7
- COc1ccccc1N(C(C)=O)C1=C(Cl)C(=O)c2ccccc2C1=O
 : -29 | 7.3% | / | -44%[inhibitor] | / | / | /
- O=C(Nc1ccc(C(=O)N2CCCC2)cc1)c1ccccc1[N+](=O)[O-]
 : 18 | 0.5% | 12% | 17%[15.4 µM] | -0.2 | 8% | 0
- Cc1cc(N/N=C/c2ccc(O)cc2O)nc(-n2nc(C)cc2C)n1
 : -7 | -3.3% | 17% | -37%[inhibitor] | 2.2 | 8% | 25
- COc1ccc(-c2cc(-c3ccccc3)c(C#N)c(SCC(=O)Nc3ncc(C)s3)n2)cc1
 : -8 | 7.9µM* | -11% | 10% | 8.3 | -20% | 5
- COc1ccc(CC(=O)Nc2ccc(S(=O)(=O)N(C)C)cc2)cc1OC
 : 0 | 0.8% | -5% | 11% | 0.0 | 15% | -9
- Cc1ccc(-c2csc3nc4c5ccccc5c(NCCCN5CCOCC5)nn4c(=O)c23)cc1
 : / | / | / | / | 0.6 | 6% | 12
- CC(C)C[C@H]1CN([C@@H](CC(C)C)CN2CCCC2CN2C(=S)NC[C@@H]2Cc2ccc(O)cc2)C(=S)N1CCc1ccccc1 (some centres not stated)
 : 0 | -2.5% | -5% | / | / | / | /
- CCc1nnc(NC(=O)c2sc3nc(C)cc(COC)c3c2N)s1
 : -22 | -2.8% | 3% | ? | 3.2 | 11% | -4
- O=C(O)CCC(=O)Nc1ccc(Sc2ccc([N+](=O)[O-])cc2)cc1
 : -16 | -0.9% | 9% | -9%[15.4 µM] | 2.8 | 6% | 1
- COc1ccc(NC(=O)CSC2CCCCC2)cc1
 : 30 | 0.7% | 3% | ? | 0.4 | -3% | -17
- C=CCN1C(c2cccc(C(F)(F)F)c2)=CS/C1=C(\C#N)c1nnc(N2CCOCC2)n1-c1ccccc1
 : -7 | 1.1% | / | -27% | / | / | /
- CC(C)=C1C2CCC1C(C(=O)Nc1sc(C)c(-c3ccc(C(C)C)cc3)c1C(N)=O)C2C(=O)O (configuration not stated)
 : -5 | -7.5% | 32µM* | 0% | 2.5 | ? | 6
- COc1cc(OC)cc(C(=O)Nc2nnc(NC(=S)Nc3ccccc3)s2)c1
 : -11 | -2.9% | ? | -3% | 4.7 | -9% | 8
- COc1ccc(/C=N/Nc2nc(C)cc(-c3ccccc3)n2)c(OC)c1
 : 6 | -4.9% | 3% | 12%[15.4 µM] | 1.1 | 20% | ?
- O=C(NCC1CCCO1)/C(=C\c1ccccc1)NC(=O)c1ccccc1 (configuration not stated)
 : -9 | / | -8% | 10%[15.4 µM] | 2.4 | 6% | 6
- Cc1[nH]c(=S)[nH]c(=O)c1CCOc1ccccc1
 : 13 | -1.2% | 5% | 24% | 0.8 | 6% | -9
- Cc1ccc(NC(=O)c2cc(-c3ccccc3)nn2-c2ccccc2)c(Br)c1
 : 15 | ? | 1% | -17% | 4.5 | -2% | 1
- Cc1ccc(Cn2ccnc2C(=O)Nc2ccccc2)cc1
 : -9 | / | 6% | ? | -3.0 | -1% | -9
- CCOC(=O)c1ccc(N=C2S/C(=C\c3cc(C)n(-c4cccnc4)c3C)C(=O)N2C)cc1
 : -23 | 0.0% | 0% | -29% | 1.0 | 13% | 22
- CC1CN(C(=O)/C(C#N)=C2\N=C(NC(=O)c3ccccc3Cl)c3ccccc32)CC(C)O1 (configuration not stated)
 : / | / | / | / | 1.1 | 3% | 1
- O=[N+]([O-])c1ccc(OCc2cnc(Cl)s2)cc1
 : -14 | 1.2% | 10% | ? | -0.6 | 8% | 0
- CCCOc1ccc2[nH]c(C(=O)N/N=C/c3cc(OC)c(OC)c(OC)c3)cc2c1
 : 23 | 3.9% | -1% | 1% | 5.5 | -2% | -3
- CCC(C)[C@H](NC(=O)N1CC(=O)Nc2ccccc21)C(=O)N1CCC[C@@H]1C(=O)O (some centres not stated)
 : / | -3.8% | -1% | / | 6.7 | 14% | -20
- COc1ccc(CNC(=O)CN2C(=O)NC3(CCCc4sccc43)C2=O)cc1OC (configuration not stated)
 : 3 | 0.0% | 9% | 5% | / | / | -7
- CC(C)N1CCC(N2CCN(Cc3nc4ccccc4s3)CC2CCO)CC1 (configuration not stated)
 : -16 | -0.3% | 11% | 0% | -0.2 | 16% | 12
- CC(=O)Nc1ccc(S(=O)(=O)N2CC3(C)CC2CC(C)(C)C3)cc1 (configuration not stated)
 : -12 | / | 5% | -4% | -2.5 | 16% | -8
- CCOC(=O)c1c(N)sc2c1CCC(CC)C2 (configuration not stated)
 : 0 | -4.2% | 2% | 22% | 2.2 | -17% | -2
- COc1ccccc1CN(Cc1nc2ccccc2c(=O)[nH]1)S(=O)(=O)c1ccc(C)cc1
 : -18 | -6.4% | 2% | 24% | 4.4 | -10% | 4
- CCC(NS(=O)(=O)c1ccc(C)cc1)C(=O)Nc1ccc(NC(C)=O)cc1 (configuration not stated)
 : 5 | -1.5% | 1% | -47% | 2.3 | -11% | 1
- CCC1=NN2C(=N)/C(=C\c3ccc(OCc4cc(=O)n5nc(CC)sc5n4)c(OC)c3)C(=O)N=C2S1
 : -15 | -6.0% | -20% | -40%[inhibitor] | 1.6 | 9% | 10
- Cc1ccc(C)c(C(=O)COC(=O)c2ccc(C)c(S(=O)(=O)N3CCOCC3)c2)c1
 : 35 | -1.4% | 5% | -12% | / | / | 5
- CCOc1cc(N2CCOCC2)c(OCC)cc1NC(=O)COC(=O)CCc1c[nH]c2ccccc12
 : 8 | 3.0% | -13% | 13% | -0.1 | -13% | 1
- COc1ccc(NC(=O)C2CCN(C(=O)c3cccs3)CC2)cc1
 : -6 | 0.4% | -2% | -1% | 2.4 | 12% | 4
- CCS(=O)(=O)CCSC(=N)N
 : 12 | -0.1% | 0% | -9% | 5.4 | -6% | 7
- Oc1ccccc1/C=N/Nc1nn[nH]n1
 : -5 | -0.9% | 7% | -2% | 1.5 | -6% | -22
- C/C(CCc1oc2ccc(Br)cc2c1-c1ccc(C)o1)=N/O
 : 21 | 1.5% | -23% | 1% | 5.2 | ? | -9
- COc1ccc(CNC(=O)C2CC(=O)N(c3ccc(OCC(=O)N4C(C)CCCC4C)cc3)C2)cc1 (configuration not stated)
 : 2 | 0.5% | 0% | -8% | 2.6 | 10% | 3
- O=C(/C=C/c1ccc(-c2ccccc2[N+](=O)[O-])o1)c1ccco1
 : 3 | / | ? | -15%[15.4 µM] | 2.8 | ? | 1
- CC(C)N(C)CCOC(=O)c1ccccc1Br
 : 4 | 1.3% | 16% | -1%[15.4 µM] | 7.0 | 25% | 3
- CCOc1ccc(-n2cc(C(=O)N3CCCCCC3)c3cc(OC)c(OC)cc3c2=O)cc1
 : -22 | -3.7% | -18% | 23% | 2.4 | -3% | -16
- CCn1nc(C(=O)OCC(=O)N(CC(C)C)c2c(N)n(Cc3ccccc3)c(=O)[nH]c2=O)c2ccccc2c1=O
 : 0 | -3.7% | 10% | 5% | / | / | -15
- COc1ccc(NC(=O)CSc2nc3ccsc3c(=O)n2CCC(=O)O)c(OC)c1
 : -7 | 0.1% | 8% | 39% | -1.0 | 9% | -1
- Cc1nnc(Cc2ccccc2)c2n[nH]c(C)c12
 : 16 | -3.5% | / | ? | / | / | /
- COc1ccc(OC)c(S(=O)(=O)NC2CCSc3ccccc32)c1 (configuration not stated)
 : -3 | / | -11% | -4%[15.4 µM] | -3.9 | 12% | 1

Source: PubChem BioAssay (National Center for Advancing Translational Sciences (NCATS))
